# From PubChem BioAssay
# Mtb RmlCD inh: inhibitors of Mycobacterium tuberculosis RmlC and RmlD coupled enzymes. AID 1533. inhibition, % at 3.6 µM. RmlC+RmlD coupled enzyme assay, percent inhibition; primary screen in compound mixtures. 160,000 compounds, 0.03% hits; in the data active = inhibition mostly above about 34%, no sharp cut-off; only retested compounds are shown here; note: some results filed as inactive read as strong as hits
# Target sequence (P9WH09 whole entry, looked up): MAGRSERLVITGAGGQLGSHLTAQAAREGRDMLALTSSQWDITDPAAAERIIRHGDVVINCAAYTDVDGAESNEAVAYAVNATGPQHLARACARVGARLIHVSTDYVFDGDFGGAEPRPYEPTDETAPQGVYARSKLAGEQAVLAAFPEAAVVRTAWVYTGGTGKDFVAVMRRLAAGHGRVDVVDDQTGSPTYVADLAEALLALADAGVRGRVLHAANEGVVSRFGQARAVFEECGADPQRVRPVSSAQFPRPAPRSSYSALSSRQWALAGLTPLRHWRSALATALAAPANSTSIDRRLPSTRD
# Target sequence (P9WH11 whole entry, looked up): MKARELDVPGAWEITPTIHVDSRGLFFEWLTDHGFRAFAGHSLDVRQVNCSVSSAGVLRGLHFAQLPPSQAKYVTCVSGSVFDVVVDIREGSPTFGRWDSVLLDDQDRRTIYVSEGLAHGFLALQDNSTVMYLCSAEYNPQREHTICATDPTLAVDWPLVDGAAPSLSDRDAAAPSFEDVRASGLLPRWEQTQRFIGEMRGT
# Mtb RmlCD inh retest: second read-out of Mtb RmlCD inh, no call of its own (marks repeat the call); inhibition, %; measured here: mean retest inhibition;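 single compounds in two wells; values far above 100% likely come from compound fluorescence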
# The depositor's hits bear a star. Not all compounds are listed; count on the stated rates, not on these rows.
SMILES | Mtb RmlCD inh | Mtb RmlCD inh retest
COc1ccc2cc(CCNC(=O)C3CC3)c(=O)[nH]c2c1 | 57 | 11
COc1ccc(OC)c(-n2c(O)c(C=Nc3c(C)n(C)n(-c4ccccc4)c3=O)c(=O)[nH]c2=S)c1 | 79 | -9
CCN(CC)c1ccc(/C=N/NC(=O)Cc2cccs2)c(O)c1 | 56 | 40
C[C@H](NC(=O)c1ccco1)C(=O)NCCc1ccc(S(N)(=O)=O)cc1 | 41 | 5
CCOCCCNC(=O)CN1C(=O)/C(=C/c2ccccc2C)Sc2ccccc21 | 43 | 8
COc1ccccc1CNC(=O)CSC1=NCCS1 | 69 | -6
O=C(C[n+]1cc(-c2ccccc2)n2c1CCC2)Nc1nc(-c2ccc(F)cc2)cs1 | 52 | -4
Cc1cc([N+](=O)[O-])ccc1NC(=O)C(C)[n+]1ccccc1 (stereo not given) | 88 | -3

# Next part
SMILES | Mtb RmlCD inh | Mtb RmlCD inh retest
CNC(=S)N/N=C(\C)c1ccc2c(c1)OCCO2 | 34 | -4
O=C(NCc1ccc2c(c1)OCO2)C1CCC(=O)N1C1CCCC1 (stereo not given) | 39 | -3
Brc1ccc(C2=Nc3cccc4cccc(c34)N2)o1 | 64 | 4
Cc1ccc2nc(C)cc(C(=O)OCC(=O)c3ccc(Cl)c([N+](=O)[O-])c3)c2c1 | 103 | -13
CC/C(=N\N1CCCCC1)c1c(O)[nH]c(=O)[nH]c1=O | 39 | 6
O=c1[nH]c(CSc2ncc(C(F)(F)F)cc2Cl)nc2ccccc12 | 40 | 1
CCC(=O)Nc1ccc2oc(-c3cccnc3)nc2c1 | 89 | 20
O=C1NC(=Nc2ccccc2)c2c1cccc2[N+](=O)[O-] | 31 | -6

# (more compounds)
SMILES | Mtb RmlCD inh | Mtb RmlCD inh retest
CCOC(=O)C1=Nc2ccccc2/C1=C\c1c(O)n(C)c(=O)n(C)c1=O | 57 | 20
Cc1ccc(C)c(-n2nnnc2SCC(=O)c2c(N)n(C)c(=O)n(C)c2=O)c1 | 109 | -8
Cc1cccc(-n2c(CNC(=O)c3cccc([N+](=O)[O-])c3C)n[nH]c2=S)c1 | 40 | -8
O=C1OC(c2ccc(Br)cc2)=N/C1=C\c1ccco1 | 61 | 4
COc1cccc(NC(=S)NCCC(c2ccccc2)c2ccccc2)c1 | 47 | -14
CC(=O)c1ccc(S(=O)(=O)N2CCN(C(=O)/C=C/c3ccc4ccccc4n3)CC2)cc1 | 85 | -6
CN(C)S(=O)(=O)c1cccc(NC(=O)CSc2nc3ccccc3[nH]2)c1 | 69 | -7
COc1ccccc1N1CCN(C(=O)c2cc(C(C)(C)C)oc2C)CC1 | 70 | 0

# Next section
SMILES | Mtb RmlCD inh | Mtb RmlCD inh retest
CCOc1ccc2[nH]c3c(N4CCC5(CC4)OCCO5)ncnc3c2c1 | 64 | 3
C=CCC(O)(CC=C)C(C)N (stereo not given) | 89 | -2
NS(=O)(=O)c1ccc(CCNC(=O)C2CCC(CNS(=O)(=O)c3ccc(Br)s3)CC2)cc1 (stereo not given) | 83 | 12
O=C(Nc1ncn[nH]1)c1ccc(Cl)c(S(=O)(=O)Nc2ccc(Cl)cc2)c1 | 98 | 8
CNC(=O)/C(C#N)=C\c1cc(C)n(-c2ccc(N3CCOCC3)cc2)c1C | 34 | 8
CCc1cc2c(C)cc(C)cc2nc1SCC(=O)Nc1cc(C)on1 | 41 | 3
Cc1nc2ccccc2c2c1C(=O)NC2=O | 48 | 7
COc1ccccc1C1CCN(C(=O)c2cnn(-c3ccccc3)c2C)CC1 | 40 | 8

# (list continues)
SMILES | Mtb RmlCD inh | Mtb RmlCD inh retest
COc1ccc(Oc2coc3cc(OC(=O)/C=C/c4ccccc4)ccc3c2=O)cc1 | 38 | 2
COc1ccc2c3c([nH]c2c1)C1CC2C(CC(O)C(OC)C2C(=O)O)CN1CC3 (stereo not given) | 50 | 7
CCOC(=O)CCS(=O)(=O)c1nc(-c2ccccc2)cc(C(F)(F)F)n1 | 62 | -15
O=C(CO/N=C/c1ccc(OC(F)F)cc1)NCc1ccco1 | 59 | 8
CCCCCc1ccc(S(=O)(=O)Nc2cc(C)ccn2)cc1 | 66 | 15
COc1cc(/C=C2\SC(=Nc3cccnc3)NC2=O)cc(OC)c1OC | 40 | -13
Cc1nc(CCl)cc(=O)[nH]1 | 34 | -3
CN(C)C(=O)C12CCC(C)(C(=O)C1Br)C2(C)C (stereo not given) | 62 | 5

# New compounds follow.
SMILES | Mtb RmlCD inh | Mtb RmlCD inh retest
O=C(c1ccc2c(c1)OCCO2)N1CCCC(CNS(=O)(=O)c2cccs2)C1 (stereo not given) | 46 | -10
O=C(c1ccco1)c1cn(CC(=O)N2CCCC2)c2ccccc12 | 80 | -1
CCOc1ncccc1C(=O)N1CCN(C(=O)c2ccccc2)CC1 | 32 | -16
O=c1[nH]c(=S)[nH]c(O)c1N=Nc1ccc2c(c1)OCO2 | 70 | 9
CC(/C=N/NC(=O)c1cc(-c2ccc(C)o2)[nH]n1)=C\c1ccccc1 | 56 | -19
CC(=O)Nc1ccc(NC(=O)c2sc3nc4n(c(=O)c3c2C)CCCCC4)cc1 | 32 | -2
Cc1ccc(/C=N/Nc2nnc(Cc3ccccc3)c(=O)[nH]2)o1 | 37 | 5
CCCCCOC(=O)C1[C@H]2C(=O)N(CCCOC)C[C@]23C=C[C@H]1O3 (stereo not given in full) | 33 | -12

# Next section
SMILES | Mtb RmlCD inh | Mtb RmlCD inh retest
CC(C)CC(=O)Nc1nnc(SCC(=O)Nc2ccc(F)cc2)s1 | 35 | 7
O=C(OCC(=O)N1CCCc2ccccc21)c1cccc(S(=O)(=O)N2CCc3ccccc32)c1 | 38 | 4
COC(=O)CCCCCCCCC(O)C[N+]1(C)CCOCC1 (stereo not given) | 79 | -28
COc1cccc(N/C(SCc2ccccc2F)=C(/C#N)C(=O)NCc2cccs2)c1 | 65 | 6
CCN(CC)S(=O)(=O)c1ccc(-n2c(=O)c(C(C)C)c(C)n2C)cc1 | 53 | -22
COc1ccccc1CN(C)C(=O)c1ccc2c(c1)NC(=O)CS2 | 44 | -4
CC#CC[N+](C)(CC#CC)CC(=O)c1ccccc1 | 36 | 6
N#Cc1nc(-c2cccs2)oc1NCc1ccccc1 | 47 | -376

# Later entries:
SMILES | Mtb RmlCD inh | Mtb RmlCD inh retest
CCOC(=O)N1CCN(S(=O)(=O)c2ccc(C(=O)Nc3ccc4c(c3)C(=O)NC4=O)cc2)CC1 | 45 | -136
CCOC(=O)N1CCN(c2c(NCc3ccc(F)cc3)c(=O)c2=O)CC1 | 39 | -2
CSc1sc(C(=O)NC(=O)NCc2ccncc2)c(C)c1-c1ccon1 | 32 | 1
CN1CCSc2ccc(C(=O)Nc3ccc(Cl)cc3)cc21 | 53 | 1
COc1cccc(/C=N/NC(=O)c2cc3c(OC)cccc3[nH]2)c1O | 69* | 156*
O=C(CSc1nnc(-c2ccco2)o1)c1ccc[nH]1 | 36 | -6
COc1ccc(OC)c(NC(=O)c2cccnc2Sc2ccccc2)c1 | 34 | 7
O=S(=O)(NC(=NCc1ccccc1)c1ccc(F)cc1)c1ccc(Cl)cc1 | 34 | -1

# (further entries)
SMILES | Mtb RmlCD inh | Mtb RmlCD inh retest
COc1cccc(C(=O)NCCSc2ccc(F)cc2)c1 | 45 | -8
CCN(C(=O)CSc1nnc(-c2cccs2)n1CC)C1CCS(=O)(=O)C1 (stereo not given) | 83 | -13
O=S1(=O)CCC(NC(=S)Nc2ccccc2)C1 (stereo not given) | 31 | -4
O=C(COc1ccc(Br)cc1)NCCO | 95 | -21
CCN1C(=O)CC(C(=O)NC)SC1=Nc1cc(Cl)c(O)c(Cl)c1 (stereo not given) | 30 | 1
O=C1NC(=O)/C(=C\c2ccc(N3CCOCC3)o2)N1 | 66 | 18
COc1ccc(C)cc1C(=O)CCC(=O)Nc1ccccc1N1CCOCC1 | 47 | -12
Cc1ccc(CN2CC(C(=O)Nc3cccc(S(=O)(=O)N4CCCCC4)c3)CC2=O)cc1 (stereo not given) | 66 | 14

# (list continues)
SMILES | Mtb RmlCD inh | Mtb RmlCD inh retest
COc1cc(NC(=O)CSc2nc3ccccc3cc2C)c(C(=O)O)cc1OC | 45 | 1
CC1CC(O)C(C)CN1 (stereo not given) | 78 | -6
CCCCc1c(C)c2ccc(OC)c(/C(C)=N\O)c2oc1=O | 65 | -8
O=C(CNCc1ccccc1Cl)NCc1ccco1 | 103 | -12
O=C(Nc1nc2ccccc2n1CCN1CCOCC1)c1ccc(Cl)cc1 | 103 | 2
CCCCNC(=S)NNC(=O)c1sccc1C | 43 | 0
CC(C)(C)S(=O)(=O)c1cnc(-c2ccc(Cl)cc2)nc1N | 41 | -8
CC(C)(C)C(=O)CSc1nccc(=O)[nH]1 | 103 | -8

# Additional results
SMILES | Mtb RmlCD inh | Mtb RmlCD inh retest
CC(C)NC(=O)C1CCN(c2ccc(S(=O)(=O)N3CCOCC3)cc2Cl)CC1 | 105 | -17
CC(C)C(=O)Nc1nnc(SCC(=O)NCc2ccco2)s1 | 30 | -4
Cc1ccc(NC(=O)CSc2nc3ccccc3c(=O)n2CCCN2CCCCC2)cc1Cl | 40 | -8
COc1cc2c(cc1OC)CN(CC(=O)Nc1ccccc1SC)CC2 | 61 | 5
Cc1ccc(OCC(O)CNCc2ccccc2)cc1C (stereo not given) | 90 | -10
CN1CCN(C(=S)SCC(=O)Nc2nc(-c3ccccc3)c(-c3ccccc3)o2)CC1 | 33 | -24
C/C(N)=C(/C#N)C(=O)CSc1n[nH]c(-c2cccs2)n1 | 64 | 5
CCOC(=O)Nc1ccc2nc(Sc3ccc(Cl)cc3)sc2c1 | 74 | -31

# Part of the list above in order of formula weight, falling.
SMILES | Mtb RmlCD inh | Mtb RmlCD inh retest
Cc1ccc(NC(=O)CSc2nc3ccccc3c(=O)n2CCCN2CCCCC2)cc1Cl | 40 | -8
Cc1ccc(CN2CC(C(=O)Nc3cccc(S(=O)(=O)N4CCCCC4)c3)CC2=O)cc1 (stereo not given) | 66 | 14
CN1CCN(C(=S)SCC(=O)Nc2nc(-c3ccccc3)c(-c3ccccc3)o2)CC1 | 33 | -24
CC(C)NC(=O)C1CCN(c2ccc(S(=O)(=O)N3CCOCC3)cc2Cl)CC1 | 105 | -17
CCN(C(=O)CSc1nnc(-c2cccs2)n1CC)C1CCS(=O)(=O)C1 (stereo not given) | 83 | -13
COc1cc(NC(=O)CSc2nc3ccccc3cc2C)c(C(=O)O)cc1OC | 45 | 1
O=S(=O)(NC(=NCc1ccccc1)c1ccc(F)cc1)c1ccc(Cl)cc1 | 34 | -1
CSc1sc(C(=O)NC(=O)NCc2ccncc2)c(C)c1-c1ccon1 | 32 | 1
COc1ccc(C)cc1C(=O)CCC(=O)Nc1ccccc1N1CCOCC1 | 47 | -12
CCN1C(=O)CC(C(=O)NC)SC1=Nc1cc(Cl)c(O)c(Cl)c1 (stereo not given) | 30 | 1
COc1cc2c(cc1OC)CN(CC(=O)Nc1ccccc1SC)CC2 | 61 | 5
COc1ccc(OC)c(NC(=O)c2cccnc2Sc2ccccc2)c1 | 34 | 7
CCOC(=O)Nc1ccc2nc(Sc3ccc(Cl)cc3)sc2c1 | 74 | -31
CCOC(=O)N1CCN(c2c(NCc3ccc(F)cc3)c(=O)c2=O)CC1 | 39 | -2
CC(C)C(=O)Nc1nnc(SCC(=O)NCc2ccco2)s1 | 30 | -4
COc1cccc(/C=N/NC(=O)c2cc3c(OC)cccc3[nH]2)c1O | 69* | 156*
CC(C)(C)S(=O)(=O)c1cnc(-c2ccc(Cl)cc2)nc1N | 41 | -8
CN1CCSc2ccc(C(=O)Nc3ccc(Cl)cc3)cc21 | 53 | 1
C/C(N)=C(/C#N)C(=O)CSc1n[nH]c(-c2cccs2)n1 | 64 | 5
CCCCc1c(C)c2ccc(OC)c(/C(C)=N\O)c2oc1=O | 65 | -8
Cc1ccc(OCC(O)CNCc2ccccc2)cc1C (stereo not given) | 90 | -10
O=C(CNCc1ccccc1Cl)NCc1ccco1 | 103 | -12
O=C(CSc1nnc(-c2ccco2)o1)c1ccc[nH]1 | 36 | -6
O=C(COc1ccc(Br)cc1)NCCO | 95 | -21
O=S1(=O)CCC(NC(=S)Nc2ccccc2)C1 (stereo not given) | 31 | -4
O=C1NC(=O)/C(=C\c2ccc(N3CCOCC3)o2)N1 | 66 | 18
CC(C)(C)C(=O)CSc1nccc(=O)[nH]1 | 103 | -8
CC1CC(O)C(C)CN1 (stereo not given) | 78 | -6

# Next part.
SMILES | Mtb RmlCD inh | Mtb RmlCD inh retest
C/C(=N\NC(=O)c1ccn(C)n1)c1cccc(NC(=O)c2ccncc2)c1 | 31 | -2
CC(=O)c1cc(CN2CCC(N3CCC(C(=O)N4CCCC4)CC3)CC2)cs1 | 37 | -19
O=C(COC(=O)CCCSc1nc2ccccc2[nH]1)Nc1ccc(Oc2ccccc2)cc1 | 52 | 2
O=C(Nc1ccc2oc(=O)ccc2c1)c1ccccc1[N+](=O)[O-] | 48 | -10
CC1(C)CSC(=NCc2ccccc2)N1C(=O)c1cccc([N+](=O)[O-])c1 | 106 | -3
CC(C)CC(=O)Nc1ccc(C(=O)NN2C(=O)c3ccccc3C2=O)cc1 | 72 | -6
COC(=O)c1c(NC(=O)CSc2nnc(C)c(=O)[nH]2)sc(C)c1C | 55 | 3
O=C(COC(=O)c1cccc(C(=O)OCC(=O)NC2CC2)n1)NC1CC1 | 35 | -15

# Remaining list, next part:
SMILES | Mtb RmlCD inh | Mtb RmlCD inh retest
Cc1cc(=O)[nH]c(NN=C(CC(C)C)CC(C)C)n1 | 69 | 8
c1ccc(-n2c3ccccc3c3ccccc32)cc1 | 80 | -8
O=C(Cn1nc(-c2ccc3c(c2)OCCO3)ccc1=O)Nc1ccc(-n2cnnn2)cc1 | 76 | 8
COCCCN1C(=O)/C(=C/c2ccc(CNS(=O)(=O)c3ccccc3)o2)C(C(=O)OC)=C1C | 43 | 2
CCOC(=O)C1C(=O)C=C(c2ccc(C)cc2)CC1c1ccccc1 (stereo not given) | 37 | -8
Cc1cc(C(=O)CSc2nnc(N)s2)c(C)n1Cc1cccs1 | 40 | 1

# Single records, as listed above. Screens in order: Mtb RmlCD inh, Mtb RmlCD inh retest
# Record of `CCOC(=O)C1C(=O)C=C(c2ccc(C)cc2)CC1c1ccccc1` (stereo not given) : 37, -8
# Record of `c1ccc(-n2c3ccccc3c3ccccc32)cc1` : 80, -8
